Beta cell apopt: inhibitors of cytokine-induced beta cell apoptosis, primary screen, luminescence; 0.8% of 300,000 active; INS-1E cytokine-induced death, ATP luminescence, 48 h; percent of positive-control rescue, neutral wells zero; protection from apoptosis, % (no concentration beside the values);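 active = all replicates at 75% or more, or half of them and the mean; inconclusive = half reach 75% but not the mean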;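 note: 0% = cytokine-treated negative control wells and 100% = positive control rescue; higher means more ATP so stronger rescue from cytokine killing; wells of about 40 µL received 100 nL stock; the first replicate is given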
Ecoli rRNA inh: reduced GFP signal of wild-type E. coli, primary screen, bacterial rRNA inhibitor project, GFP/RFP fluorescence, OD600, single point; E. coli WT GFP vs humanized-ribosome RFP mutants, 24 h; active compounds read low; DMSO median 0, no signal -100; GFP signal change (wild-type ribosome), % (test concentration not listed); 1.6% of 350,000 active; AID 720706, 2013;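 active = significant combined selectivity score with lowered wild-type GFP, culture density cut under 30%, mutant RFP and density less affected; inactive = any of these conditions unmet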; note: one replicate is shown; some compounds called inactive have numbers as strong as hits
RanGTP-Impb inh: inhibitors of RanGTP-importin-beta interaction, primary screen, biochemical, FRET, CFP-Ran, YFP-importin-beta, homogeneous | cell-free CFP-Ran/YFP-importin-beta FRET ratio | inhibition, % (no concentration beside the values) | 1.1% of 300,000 active;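 active = most replicates above 15%; inconclusive = exactly half above 15%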;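 note: 0% = DMSO wells and 100% = Ran loaded with GDP instead of GTP; wells of about 40 µL received 100 nL stock; the first replicate is given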
T cruzi inh: inhibitors of intracellular T. cruzi growth, primary screen, luminescence, NIH3T3 host cells | T. cruzi beta-gal in NIH3T3, 90 h | inhibition, % (test concentration not listed) | 1.4% of 300,000 active;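 active = mean inhibition across valid replicates above about 55%, limit read from the data; inconclusive = mean below that limit but half or more replicates reach it; inactive = mean below it, under half of replicates reach it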;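 note: signal also drops with host cell toxicity which is not excluded here; 0% = plate median of DMSO wells and 100% = zero luminescence signal; higher percent means less beta-gal luminescence so fewer parasites; stock transfer was 50 nL into about 50 µL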
AF4-AF9 inh: inhibitors of AF4 peptide binding to AF9, primary screen, biochemical, AlphaScreen, biotin-AF4 peptide, FLAG-AF9, single point. inhibition, % at 10 µM. 0.47% of 350,000 active;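 active = every replicate reaching a set inhibition limit, whatever the replicate mean, cut at about 25% in these data; inconclusive = mean inhibition reaches that limit but some replicates miss it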;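 note: 0% = plate neutral control median and 100% = total signal loss; the record names both 10 and 1 µM as test concentration; the first replicate is given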
Target sequence (P42568 whole entry, looked up): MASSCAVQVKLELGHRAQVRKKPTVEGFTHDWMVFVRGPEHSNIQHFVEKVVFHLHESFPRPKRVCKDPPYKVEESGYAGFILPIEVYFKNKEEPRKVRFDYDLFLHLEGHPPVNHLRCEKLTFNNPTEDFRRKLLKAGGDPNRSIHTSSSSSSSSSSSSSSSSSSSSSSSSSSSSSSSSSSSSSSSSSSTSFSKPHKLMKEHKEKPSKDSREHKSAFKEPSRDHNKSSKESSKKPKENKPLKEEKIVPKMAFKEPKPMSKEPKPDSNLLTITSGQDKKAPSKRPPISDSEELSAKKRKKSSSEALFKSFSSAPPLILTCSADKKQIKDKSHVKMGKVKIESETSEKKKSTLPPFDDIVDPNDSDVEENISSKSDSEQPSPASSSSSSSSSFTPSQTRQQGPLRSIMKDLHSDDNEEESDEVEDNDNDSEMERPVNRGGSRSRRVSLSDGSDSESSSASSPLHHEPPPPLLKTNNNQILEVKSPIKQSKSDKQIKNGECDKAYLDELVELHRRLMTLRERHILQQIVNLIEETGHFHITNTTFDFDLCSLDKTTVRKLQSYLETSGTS
Calb FLC: C. albicans growth inhibition with fluconazole, primary screen, CaCi-2 strain, Alamar Blue fluorescence | 0.57% of 300,000 active | AID 1979, 2009 | growth inhibition, % (test concentration not listed) | C. albicans CaCi-2 (fluconazole-resistant clinical isolate) + fluconazole, 48 h;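 active = most replicates above 75%; inconclusive = exactly half above 75%; inactive = most below 75%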;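 note: all wells also contain fluconazole at 8 µg/ml as a sub-toxic cotreatment; 0% = median of DMSO wells and 100% = median of geldanamycin control wells; wells of about 8 µL received 7.5 nL stock; the first replicate is given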
FGF22 binding: binders of human FGF22 protein, primary screen, FGF22 synaptogenesis inhibitor project, biophysical, thermal shift, single point. calls only at 9.99 µM. Fibroblast growth factor 22 (Homo sapiens), Q9HCT0. recombinant FGF22 thermal shift, SYPRO orange fluorescence; percent of sucrose octasulfate shift, DMSO zero. 1.5% of 340,000 active;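 active = melting point raised past a set limit in the mean and every replicate; inconclusive = no clear call; three in four hits are not shown here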
Target sequence (Q9HCT0 whole entry, looked up): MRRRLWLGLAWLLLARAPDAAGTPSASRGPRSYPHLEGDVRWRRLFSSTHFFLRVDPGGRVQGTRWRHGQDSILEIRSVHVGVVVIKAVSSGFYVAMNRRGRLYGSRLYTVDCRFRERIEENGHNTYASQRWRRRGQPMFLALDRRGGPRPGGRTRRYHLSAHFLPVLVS
ALR inh: inhibitors of human ALR sulfhydryl oxidase, primary screen, biochemical, H2O2 detection, HRP-luminol luminescence, single point; FAD-linked sulfhydryl oxidase ALR (Homo sapiens), P55789; purified ALR, DTT oxidation; inhibition, % (no concentration beside the values); 3.8% of 290,000 active; AID 485317, 2010;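 active = mean and each replicate at 75% or more; inconclusive = only one of the two met; inactive = neither met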;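 note: stock transfer was 7.5 nL into about 7.5 µL; 0% = neutral wells and 100% = wells with inactivated enzyme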
Target sequence (P55789 whole entry, looked up): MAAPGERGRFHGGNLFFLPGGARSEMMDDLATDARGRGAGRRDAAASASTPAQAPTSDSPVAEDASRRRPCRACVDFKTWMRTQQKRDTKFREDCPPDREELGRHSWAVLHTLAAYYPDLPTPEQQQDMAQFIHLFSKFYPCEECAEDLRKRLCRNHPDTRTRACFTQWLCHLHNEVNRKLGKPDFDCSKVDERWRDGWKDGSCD
Ecoli rRNA inh OD600: second read-out of Ecoli rRNA inh, no call of its own (marks repeat the call); OD600 change, %; measured here: OD600 growth;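 optical density of the mix in the first replicate; 0 = DMSO median and -100 = no signal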
Ecoli rRNA inh RFP: second read-out of Ecoli rRNA inh, no call of its own (marks repeat the call); RFP signal change, %; measured here: RFP humanized mutant strains;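 first replicate; 0 = DMSO median and -100 = no signal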
* = called active by the depositor; i = inactive; u = inconclusive; x = not tested or not shown. This is a subset (hit frequency here may not be typical).

SMILES	Beta cell apopt	Ecoli rRNA inh	Ecoli rRNA inh OD600	Ecoli rRNA inh RFP	RanGTP-Impb inh	T cruzi inh	AF4-AF9 inh	Calb FLC	FGF22 binding	ALR inh
COc1ccc(CCN2CN(S(=O)(=O)c3ccc(OC)cc3)c3nc4ccccc4nc32)cc1	x	-9	-5	1.1	-1.2	3	-5.5	3	i	35
Cc1ccc(C)c(NC(=S)N2CCC(NC(=O)C3CCCCC3)CC2)c1	-6	10	8	-1.4	-3.8	-12	-1.7	-4	i	-3
COc1ccc([C@H]2CC(=O)C=C(c3ccccc3OC)C2)cc1OC	4	-23	-41	-10	x	x	3.0	x	i	-2
COc1cc(C(C)=O)ccc1OCc1cc(C(=O)N(C)CCC2CCCCO2)no1 (stereo not given)	-3	-8	-12	2.7	0.2	9	1.9	-3	i	-38
COc1ccc(-c2nn(-c3ccccc3)cc2C(=O)O)cc1N	-4	-12	-8	-6.8	1.7	-1	0.2	6	i	11
Cn1c(=O)c2c(nc(OCc3cccnc3)n2Cc2c(F)cccc2Cl)n(C)c1=O	-3	x	x	x	-4.0	15	x	2	x	-7
CC(/C=C\c1ccccc1)=C/C(=O)O	-3	-6	-3	-1.6	1.6	-25	x	-12	i	-10
CCOC(=O)C1CCN(c2nc(C)cc(C)c2C#N)CC1	-3	-18	-20	0.7	7.9	-8	-1.9	-33	i	x
CC(=O)c1cccc(NC(=O)CCc2nnc3ccc(N4CCN(C)CC4)nn23)c1	-13	11	30	-2.8	u	-6	-2.5	5	i	x
C=CCc1cc(OC)ccc1OCCOCCC(C(=O)OCC)C(=O)OCC	-4	x	x	x	1.7	-4	x	21	x	-76
O=C(NC1CCCN(CCc2ccccc2)C1)c1c(F)cccc1F (stereo not given)	x	10	11	0.0	3.0	15	-28	3	i	-2
CC1CCCCN1CCCNC(=O)C1CCN(c2nc3ccccc3o2)CC1 (stereo not given)	x	11	8	-1.7	2.6	4	2.0	-5	i	-11
COc1ccc2[nH]c(C(=O)N(C)c3ccc(F)cc3F)cc2c1	x	x	x	x	-1.7	-6	-1.1	-3	i	0
CN(C)S(=O)(=O)NCCNc1ccc(C(F)(F)F)cc1[N+](=O)[O-]	3	-13	-7	0.5	1.7	-12	1.4	-7	i	-1
S=c1[nH]nc(-c2ccc(Cl)cc2)n1-c1ccc(Cl)cc1	1	-19	-24	-8.8	-0.4	7	-9.0	20	i	82*

Overlap with the part before: two compounds; new compounds follow.
SMILES	Beta cell apopt	Ecoli rRNA inh	Ecoli rRNA inh OD600	Ecoli rRNA inh RFP	RanGTP-Impb inh	T cruzi inh	AF4-AF9 inh	Calb FLC	FGF22 binding	ALR inh
CN(C)S(=O)(=O)NCCNc1ccc(C(F)(F)F)cc1[N+](=O)[O-]	3	-13	-7	0.5	1.7	-12	1.4	-7	i	-1
S=c1[nH]nc(-c2ccc(Cl)cc2)n1-c1ccc(Cl)cc1	1	-19	-24	-8.8	-0.4	7	-9.0	20	i	82*
CCOC(=O)c1[nH]ncc1CN1CCCC(C(=O)c2cccc3ccccc23)C1 (stereo not given)	13	3	7	7.8	8.5	12	6.5	-9	i	-10
COc1ccc2[nH]c(=O)c(CN(CC3CCCO3)C(=O)Nc3ccccc3)cc2c1 (stereo not given)	0	x	x	x	4.6	19	x	-1	x	5
O=C(CSc1nc2ccccc2c(=O)n1Cc1ccco1)NCc1ccco1	7	x	x	x	4.6	5	x	-11	x	1
Cc1ccc(S(=O)(=O)NCCC(=O)NCC(=O)Nc2c(C)cccc2C)cc1C	1	2	7	-1.2	0.0	-1	3.1	-3	i	-3
O=C(Nc1ccc(F)c(Cl)c1)N1CCCC1	-3	-5	3	-3.0	1.8	6	0.2	-7	i	-5
COc1ncnc2c1sc1nc(-c3ccccc3)c3c(c12)CCCC3	1	x	x	x	0.6	2	x	4	x	1
CC1(C(=O)OCC(=O)Nc2ccc(C(N)=O)cc2)CC1(Cl)Cl (stereo not given)	-10	6	16	1.7	-2.5	-6	0.2	-9	i	0
COc1cccc(C(c2sc3ncnn3c2O)N2CC(C)OC(C)C2)c1 (stereo not given)	-7	7	11	-2.9	u	7	1.5	1	i	-6
Cc1ccc(O)c(CCc2ccccc2)n1	-2	6	8	1.5	2.9	-9	0.1	4	i	x
CCn1c(=O)c2c3c(sc2n(C)c1=O)CCC3	2	x	x	x	-0.8	4	x	8	x	-4
COC(=O)C1(C)NC(c2cccs2)C2C(=O)N(c3ccccc3F)C(=O)C21 (stereo not given)	-4	x	x	x	3.0	-12	x	-2	x	2
CCOc1ncccc1C(=O)OCc1cccc([N+](=O)[O-])c1	-11	-3	-6	-0.2	u	-30	-0.7	u	i	-7
CN1C(=O)c2ccc(NC(=O)c3cccc4ccccc34)cc2C1=O	1	10	21	-1.6	u	1	-4.8	0	i	-13
O=C(CN1CCN(c2ccc(Cl)cc2)CC1)c1ccc2c(c1)OCO2	-7	x	x	x	8.3	21	x	-40	x	2
Cc1cccc(NC(=O)C2CCCN(C(=O)Nc3ccc(F)cc3)C2)c1 (stereo not given)	-2	-2	-1	2.9	-4.2	-6	-0.4	-3	i	2
CCC1CCCCN1Cc1ccc(OC)c(C)c1 (stereo not given)	0	x	x	x	-3.4	24	x	13	x	-1
CCN(C(=O)CN1C(=O)NC(c2ccccc2)(c2ccc(C)c(C)c2)C1=O)C1CCCCC1 (stereo not given)	-8	-10	-7	0.8	x	x	1.5	x	i	-3
Cc1ccc(-n2cnc3c(sc4nc(N5CCOCC5)c5c(c43)CCCC5)c2=O)cc1	6	1	-12	-3.7	-1.2	u	0.4	21	i	-8
Cc1ccc(NC(=O)CCS(=O)(=O)c2ccc3c(c2)NC(=O)C(C)S3)cc1Cl (stereo not given)	-3	-13	-25	-2.4	3.5	4	-1.5	-1	i	-2
CCNS(=O)(=O)c1ccc(CCC(N)=O)cc1	-3	10	10	3.0	2.5	-13	-2.7	9	i	2
COc1c2c(nc3occc13)C(CC=C(C)C)(OC)C(OC(C)=O)CC2 (stereo not given)	-6	x	x	x	5.7	-8	x	1	x	4
COc1cccc(CN(C)CC(=O)NNC(=O)c2ccc(Cl)cc2)c1	-1	x	x	x	0.7	-24	x	2	x	-5
COc1ccc(Cl)cc1NC(=O)CCS(=O)(=O)c1cc2c(cc1C)NC(=O)CO2	-2	5	13	0.5	3.5	-10	-87	-3	i	-9
COc1cc(/C=C/C(=O)OCC(=O)Nc2ccc3c(c2)OCCO3)ccc1O	-4	x	x	x	-5.3	-2	x	-27	x	81*
CC(C)(C)c1ccc(C(=O)N2CCN(c3ncccn3)CC2)cc1	-8	2	7	2.3	-1.6	4	-7.7	-10	i	-10
CN(C)CCNC(=O)c1ccccc1-c1ccccc1	-5	x	x	x	u	14	x	-10	x	-11
OC1(c2ccc(Br)cc2)CCNCC1	-8	x	x	x	3.5	11	x	-5	x	-3
Cc1ccnc(NC(=O)CCC(=O)N(CC(=O)NC(C)(C)C)Cc2ccc3c(c2)OCO3)c1	-6	0	4	0.1	1.1	12	0.9	-3	i	x
CC1Cc2nc(SCC(=O)Nc3nccs3)n(C)c(=O)c2S1 (stereo not given)	1	-6	3	0.5	5.2	-5	1.6	2	i	98*
O=C(NC1CC1)c1cc2cc(Br)ccc2s1	-3	-4	-1	-1.6	2.3	4	-1.5	-4	i	0
O=C(c1cccc(Cl)c1)N1CCN(Cc2ccc3c(c2)OCO3)CC1	0	-5	-12	0.1	1.3	-6	0.8	-28	i	7
COc1ccc(N2CCN(C(=O)CN(c3ccc(OC)cc3)S(=O)(=O)c3ccccc3)CC2)cc1	x	-16	-17	13	-1.5	9	11	-8	i	14
CC(C)(C)C(=O)Nc1ccc(S(=O)(=O)Nc2nccs2)cc1	-3	14	16	-0.2	-1.8	-13	-20	-5	i	-1
Cc1cccc(/N=C/c2c(O)cc(C)oc2=O)n1	-5	0	0	3.3	1.8	-7	x	30	x	-4
CCCNC(=O)C1CCC(CNS(=O)(=O)c2ccc3c(c2)N(C(C)=O)CCO3)CC1 (stereo not given)	-5	0	4	0.6	u	4	-3.9	5	x	-4
COc1ccc(S(=O)(=O)N2CCCCC2)cc1NC(=O)CSc1nnc(C2CC2)n1C	-2	0	0	-0.3	x	x	-0.3	x	i	-2
CC(=O)NS(=O)(=O)c1ccc(NC(=O)c2oc3c(Cl)cccc3c2C)cc1	-12	x	x	x	5.2	5	x	-5	x	x
CCC(=O)NNC(=S)NC(=O)c1ccc(C)cc1	5	-49	-73	-12	0.4	-2	-1.0	20	i	99*
CC1Sc2ccc(C(=O)Nc3ccc(S(=O)(=O)N(C)C)cc3)cc2NC1=O (stereo not given)	9	-7	-18	0.0	1.7	4	-8.9	2	i	98*
C/C(=N\Nc1ccc(S(=O)(=O)N2CCOCC2)cc1[N+](=O)[O-])C(C)C	3	-2	-1	-1.5	1.5	12	18	3	i	2
Cc1ccc(NC(=O)CCc2ccc(S(=O)(=O)N3CCOCC3)cc2)c(C)c1	-4	x	x	x	u	-13	x	-13	x	-1
COC(=O)c1ccc(C(=S)N2CCOCC2)cc1	-3	x	x	x	-3.0	-3	x	5	x	7
C=CC[C@@H](CC(=O)N[C@@H](CO)Cc1ccccc1)C(=O)N[C@H](COC(=O)[C@@H](CC=C)Cc1ccc(F)cc1)C(C)(C)C	1	1	-15	18	x	x	0.1	x	i	-12
COc1ccccc1CNC(=O)c1nn(-c2ccc(C)cc2)c(=O)c2c1c1ccccc1n2C	11	x	x	x	-5.8	20	x	-1	x	-4
Cc1cc(Oc2ccc3ccccc3c2)nc(SCC(=O)c2ccccc2)n1	11	x	x	x	0.0	8	x	37	x	-11
COc1ccc(OCc2cc(C(=O)NCC3CCOCC3)no2)c(Cl)c1	-3	-3	-12	1.7	2.6	5	-35	-9	i	-11
O=C(O)Cn1c(=O)c2c3c(sc2n(Cc2ccccc2F)c1=O)CCCC3	-1	-10	-10	-4.1	2.5	-8	-1.8	10	i	4
CCOC(=O)[C@H]1[C@H]2COc3ccc(Cl)cc3[C@@H]2N2C(=O)c3cc(F)ccc3NC(=O)[C@@]12C	3	-14	-22	-14	x	x	-8.4	x	i	x
COc1ccccc1N1CCN(C(=O)CSc2nc(N)cc(=O)[nH]2)CC1	1	x	x	x	-0.9	6	x	12	x	8
O=C(c1ccccc1F)N1CCN(C2CCC(c3ccccc3)CC2)CC1 (stereo not given)	3	-29	-25	-0.6	-1.3	31	1.9	-7	i	x
O=C(NCc1ccco1)c1ccc(Cl)c(S(=O)(=O)N2CCCC2)c1	1	4	8	-1.1	x	x	0.5	x	i	-2
O=c1oc(CCCO)cc2ccc(C#CC3(O)CCCCC3)cc12	-9	-14	2	1.2	x	x	0.2	x	i	-7
